Vif TR-FRET: inhibitors of Vif binding to APOBEC3G peptide, primary screen, biochemical, TR-FRET, GST-Vif 1-94, biotin-A3G peptide, dose response retest (AID 1117319); TR-FRET GST-Vif / biotin-A3G peptide binding; higher % means a stronger effect; test concentration not given here; strong numbers were not always called active; inhibition, %; hits with a dose series show IC50 in µM; hit rate 0.57% among 260,000;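 active means above the screen mean plus three standard deviations and confirmed in dose response; inconclusive means results disagree or hit not tested in dose response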;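 further: Vif residues 1-94 fused to GST binding biotinylated APOBEC3G peptide 110-148; 0% = full assay without inhibitor and 100% = GST in place of GST-Vif; retest series ran down from 100 µM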
A1 inh: inhibitors of the anti-apoptotic protein A1, read as caspase activation; MEF A1-2A-BIM cells, Caspase-Glo 3/7 luminescence, 3 h; percent of clofoctol response, vehicle zero; caspase activation, % (test concentration not listed); hit rate 0.066% among 330,000;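 active means over half of replicate activation scores above 10%, or exactly half above 10 with the replicate mean above 10; inconclusive means replicate mean below 10 yet half the replicates above 10; inactive means over half of replicates below 10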;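 further: wells of about 30 µL received 50 nL stock; many hits fall short of the cut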
RanGTP-Impb inh: inhibitors of RanGTP-importin-beta interaction, primary screen, biochemical, FRET, CFP-Ran, YFP-importin-beta, homogeneous; cell-free CFP-Ran/YFP-importin-beta FRET ratio; inhibition, % (test concentration not listed); hit rate 1.1% among 300,000; AID 2216;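 active means most replicates above 15%; inconclusive means exactly half above 15%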;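 further: 0% = DMSO wells and 100% = Ran loaded with GDP instead of GTP; wells of about 40 µL received 100 nL stock; the first replicate is given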
AF4-AF9 inh: MLL-AF4/AF9 protein interaction inhibition. P42568. AlphaScreen, biotin-AF4 peptide binding to FLAG-AF9. inhibition, % at 10 µM. hit rate 0.47% among 350,000. AID 651704;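 active means every replicate reaching a set inhibition limit, whatever the replicate mean, cut at about 25% in these data; inconclusive means mean inhibition reaches that limit but some replicates miss it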;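 further: 0% = plate neutral control median and 100% = total signal loss; the record names both 10 and 1 µM as test concentration; the first replicate is given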
T cruzi repl: blocks replication of Trypanosoma cruzi; T. cruzi beta-gal in NIH3T3, luminescence, 90 h; inhibition, % (no concentration beside the values); hit rate 1.4% among 300,000;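 active means mean inhibition across valid replicates above about 55%, limit read from the data; inconclusive means mean below that limit but half or more replicates reach it; inactive means mean below it, under half of replicates reach it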;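 further: signal also drops with host cell toxicity which is not excluded here; 0% = plate median of DMSO wells and 100% = zero luminescence signal; higher percent means less beta-gal luminescence so fewer parasites; stock transfer was 50 nL into about 50 µL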
Beta apoptosis: blocks beta cell apoptosis; protection from apoptosis, % (no concentration beside the values); AID 435005; hit rate 0.8% among 300,000; INS-1E cytokine-induced death, ATP luminescence, 48 h; percent of positive-control rescue, neutral wells zero;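 active means all replicates at 75% or more, or half of them and the mean; inconclusive means half reach 75% but not the mean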;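 further: 0% = cytokine-treated negative control wells and 100% = positive control rescue; higher means more ATP so stronger rescue from cytokine killing; wells of about 40 µL received 100 nL stock; the first replicate is given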
LANA-H2A inh: blocks KSHV LANA binding to histone H2A/H2B; AID 2629; inhibition, % (concentration not given with the values); Q9QR71; cell-free LANA-H2A/H2B peptide, fluorescence polarization; hit rate 0.6% among 320,000; in the data active means inhibition mostly above about 10%, no sharp cut-off; inactive means mostly below about 6.7%;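 further: stock transfer was 7.5 nL into about 10 µL; 0% = median of vehicle wells and 100% = median of positive control wells; one replicate is shown; the record names a cut of 25% in any replicate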
Target sequence (Q9QR71 whole entry, looked up): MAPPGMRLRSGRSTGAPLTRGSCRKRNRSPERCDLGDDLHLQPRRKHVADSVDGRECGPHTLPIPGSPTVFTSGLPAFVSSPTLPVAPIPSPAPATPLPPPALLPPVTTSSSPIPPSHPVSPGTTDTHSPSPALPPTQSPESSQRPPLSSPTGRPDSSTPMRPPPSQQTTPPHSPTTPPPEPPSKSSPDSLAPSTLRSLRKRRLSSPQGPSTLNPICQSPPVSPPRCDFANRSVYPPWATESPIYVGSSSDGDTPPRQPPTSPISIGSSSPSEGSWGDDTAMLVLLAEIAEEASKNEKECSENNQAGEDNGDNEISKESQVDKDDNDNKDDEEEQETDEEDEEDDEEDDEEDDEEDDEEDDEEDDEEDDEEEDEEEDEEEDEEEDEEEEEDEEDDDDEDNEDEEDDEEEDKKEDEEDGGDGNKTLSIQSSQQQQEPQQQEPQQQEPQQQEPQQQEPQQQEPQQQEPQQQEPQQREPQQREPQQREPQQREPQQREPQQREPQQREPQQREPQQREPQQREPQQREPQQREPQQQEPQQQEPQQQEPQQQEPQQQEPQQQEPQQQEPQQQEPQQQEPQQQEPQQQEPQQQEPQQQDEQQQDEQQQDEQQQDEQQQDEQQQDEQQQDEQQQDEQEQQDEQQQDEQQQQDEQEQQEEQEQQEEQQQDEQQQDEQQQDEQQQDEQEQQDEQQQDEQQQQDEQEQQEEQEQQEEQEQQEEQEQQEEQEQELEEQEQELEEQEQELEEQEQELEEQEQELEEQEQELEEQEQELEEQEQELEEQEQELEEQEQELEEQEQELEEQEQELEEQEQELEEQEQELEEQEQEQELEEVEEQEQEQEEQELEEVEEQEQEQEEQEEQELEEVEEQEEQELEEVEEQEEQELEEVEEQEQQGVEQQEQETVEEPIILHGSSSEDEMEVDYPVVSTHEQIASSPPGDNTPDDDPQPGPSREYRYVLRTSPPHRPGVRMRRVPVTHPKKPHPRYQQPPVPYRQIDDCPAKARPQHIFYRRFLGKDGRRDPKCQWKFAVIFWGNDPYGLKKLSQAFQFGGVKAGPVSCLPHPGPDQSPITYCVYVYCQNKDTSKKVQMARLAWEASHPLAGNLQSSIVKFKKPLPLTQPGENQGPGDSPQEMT
Calb FLC: affects C. albicans growth with fluconazole. C. albicans CaCi-2 (fluconazole-resistant clinical isolate) + fluconazole, Alamar Blue growth, 48 h. growth inhibition, % (no concentration beside the values). hit rate 0.57% among 300,000;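 active means most replicates above 75%; inconclusive means exactly half above 75%; inactive means most below 75%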;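 further: all wells also contain fluconazole at 8 µg/ml as a sub-toxic cotreatment; 0% = median of DMSO wells and 100% = median of geldanamycin control wells; wells of about 8 µL received 7.5 nL stock; the first replicate is given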
Active calls of the source: *; ? = inconclusive; / = no result given; & = joins results of further samples. Random draw from the library. About 4.3% of those tested had a hit in this group.

SMILES	Vif TR-FRET	A1 inh	RanGTP-Impb inh	AF4-AF9 inh	T cruzi repl	Beta apoptosis	LANA-H2A inh	Calb FLC
CCN(CC)c1ccc(C(=O)NC(=S)Nc2cc(S(=O)(=O)N3CCOCC3)ccc2-n2cncn2)cc1	/	-0.2	5.3	/	16	-3	-2.0	31
CCOc1ccc(C(CC(=O)O)NC(=O)CCCOc2ccc(Cl)cc2C)cc1 (stereo not drawn)	/	0.5	0.3	-1.4	-13	-2	-0.4	-4
c1ccc(Oc2cccc(OCCCCN3CCCC3)c2)cc1	/	-0.5	-1.9	/	53	5	-1.5	-31
O=C(C[n+]1ccc(/C=N/O)cc1)N1CCCCC1	-4%	1.5	3.3	-1.1	0	-4	-4.5	-3
O=C(Nc1ccc(N2CCCCC2)c(S(=O)(=O)Nc2ccccc2Cl)c1)c1cccnc1	0%	0.9	/	1.8	/	4	0.9	/
COc1cc(/C=C2\SC(=S)N(CC(=O)Nc3ccc(O)cc3)C2=O)cc(OC)c1OC	6%	/	-6.4	2.3	0	/	/	-20
CN(Cc1cccs1)c1ncnc2sccc12	-3%	?	4.5	/	-26	5	1.8	-12
O=C(NCCCn1ccnc1)Nc1ccc(Cl)cc1Cl	?	-0.6	0.8	/	5	0	-1.4	4
CCCCC(CC)C(=O)Nc1cc(C(=O)NCc2ccc(C)cc2)ccc1N1CCC2(CC1)CC(c1ccccc1)=NO2 (stereo not drawn)	/	0.8	2.5	-0.8	28	3	4.6	7
Nc1ccc(Cc2ccc(N)c(C(=O)O)c2)cc1C(=O)O	1%	-0.1	?	-10	-1	-3	-1.8	27
O=C(CSc1nnc(-c2ccccc2)n1-c1ccc(Cl)cc1)NNC(=S)Nc1ccccc1	/	-0.1	?	3.6	6	-4	-2.1	-6
COc1ccc(NC(=O)c2cc(S(=O)(=O)NCC3COc4ccccc4O3)ccc2F)cc1 (stereo not drawn)	1%	0.7	0.2	/	-33	-8	0.1	23
COc1ccc(NC(=O)C2CCCN(C(=O)Nc3ccc(OC)cc3)C2)cc1 (stereo not drawn)	3%	0.4	-1.7	0.4	-1	-2	1.2	12
COc1ccc(C(=O)Nn2c(SCC(=O)NCC3CCCO3)nc3ccccc3c2=O)cc1 (stereo not drawn)	-10%&3%	-1.3	?	/	5	10	2.7	10
Brc1ccc(C2C3=C(Nc4ncnn42)c2ccccc2OC3c2ccncc2)cc1 (stereo not drawn)	-1%&0%	0.3	2.9	/	60*	-1	-3.1	-19
COc1ccc(CCC(=O)NNC(=O)Nc2ccc(OC)c(OC)c2)cc1	3%	1.4	3.9	0.8	4	-2	-1.1	-3
Cn1nc(-c2ccc(OCC(=O)NCC3CCCO3)cc2)c2ccccc2c1=O (stereo not drawn)	5%	3.4	-1.2	/	5	9	-1.1	27
COc1ccc(NC(=O)N2CCN(S(C)(=O)=O)CC2)cc1OC	2%	0.8	2.0	/	-3	-7	2.3	-10
CC[C@@]1(C(=O)OC)N[C@H](CN(C)C(=O)NC(C)C)[C@@H]2C(=O)N(Cc3ccccc3)C(=O)[C@@H]21	4%	0.6	/	-2.8	/	-9	1.5	/
COCCNC(=O)c1cc(C(=O)CC(C)C)c[nH]1	/	0.7	2.0	-2.4	-6	0	2.1	-3
CC(=O)Nc1ccc(C(=S)NCC2(N(C)C)CCCCC2)cc1	-6%	-1.2	-0.4	-0.1	-14	0	-0.4	5
O=C(NCc1ccco1)c1cnn2c1NC(c1ccccc1)CC2C(F)(F)F (stereo not drawn)	0%	-0.8	-5.3	/	3	-1	1.6	-2
CCC1COCCS(=O)(=O)N1Cc1ccccc1C (stereo not drawn)	/	0.5	?	-3.3	-14	-4	-4.1	-4
O=C(Oc1nsnc1N1CCOCC1)N1CCCC1	0%	-0.8	1.0	/	14	-2	3.7	-4
CCOc1cc(S(=O)(=O)Nc2ccc(CC)cc2)ccc1Cl	2%	0.2	0.1	/	22	55	-4.6	3
COc1ccc(OC)c(NC(=O)C2CCC(CNc3c(N4CCOCC4)c(=O)c3=O)CC2)c1 (stereo not drawn)	?	0.0	-2.3	-6.4	21	-5	4.0	1
CC(C)(C)S(=O)(=O)/C(C#N)=N/Nc1ccc(C#N)cc1	0%	0.1	-3.7	-0.8	-8	8	2.6	-8
CCOc1ccc2nc(NC(=O)Nc3cccs3)sc2c1	14%	-6.6	2.3	6.3	23	/	0.0	43
COc1ccc(CCNC(=O)CSc2ccsc2[N+](=O)[O-])cc1OC	-4%	1.0	0.0	0.4	15	9	-1.5	-14
O=C(Nc1cccc(Cl)c1N1CCCC1)c1ccc(Br)o1	3%	1.5	3.5	/	26	-4	1.5	4
CC(C)NC(=O)CSc1nc(-c2ccccc2)cs1	12%	/	9.1	-1.4	9	/	/	23
CC(Sc1nnc(COc2ccccc2)n1-c1ccccc1)C(=O)O (stereo not drawn)	/	0.6	0.7	-5.2	-11	/	5.2	4
CCC(C)c1ccc(NC(=O)COC(=O)CCNS(=O)(=O)c2cccs2)cc1 (stereo not drawn)	/	-0.5	/	1.0	/	1	2.7	/
CCOCC(=O)Nc1ccc2c(c1)N(S(=O)(=O)c1cccs1)CCC2	0%	1.3	1.5	2.7	-7	0	3.0	4
Cc1ccc2oc(=O)c3cc(C(=O)NCc4ccco4)sc3c2c1	20%	-0.1	-2.9	-1.0	23	-1	0.6	3
CCCNC(=O)Cn1nc(C(F)(F)F)c2c1CCC2	2%	0.0	0.1	0.0	-11	-6	1.6	16
CC(O)CN(CCC(N)=O)CCC(N)=O (stereo not drawn)	-3%	0.0	3.1	/	1	-8	-0.3	4
O=C(CSc1nnc(-c2cccs2)n1CC1CCCO1)c1cc2ccccc2o1 (stereo not drawn)	?	-0.6	2.4	/	13	-7	4.4	-3
COc1ccc(CC2(CO)CCN(Cc3c(C)nn(C(C)C)c3C)CC2)cc1	16%	0.2	2.6	0.0	?	1	2.9	-21
O=C(NC1CCCC1)C1c2ccccc2C(=O)N1C1CCCCC1 (stereo not drawn)	-1%	0.9	-4.1	/	-20	-1	-1.9	8
c1ccc(C2=Nn3c(nnc3-c3cccs3)SC2)cc1	/	1.2	-2.7	-5.0	4	/	0.9	4
CC(=O)[C@@]1(O)CCC2C3C=CC4=CC(=O)CC[C@]4(C)C3CC[C@@]21C (stereo partly drawn)	-2%	0.9	/	-1.2	/	1	/	/
O=C(C1=C(O)C(=O)N(Cc2ccccc2)C1c1ccncc1)c1ccco1 (stereo not drawn)	3%	-0.4	1.3	/	10	-1	-2.2	-10
CC(C)CCN(C)C1CCN(C(=O)Nc2c(F)cccc2F)CC1	-1%	0.4	5.8	-4.4	31	/	1.4	3
OC(CNCCNc1ncccc1C(F)(F)F)Cn1ccc2ccccc21 (stereo not drawn)	4%	-1.1	0.0	/	24	-2	-6.4	-3
CC(=O)N1CCN(S(=O)(=O)c2ccc(C)cc2)C1C(C)C (stereo not drawn)	2%	-0.1	1.8	/	?	/	3.6	9
Cc1ccccc1C(=O)NNC(=O)C(C)N1C(=O)c2ccccc2C1=O (stereo not drawn)	-4%	1.3	-4.6	3.7	2	1	1.0	2
O=[N+]([O-])c1ccc(-c2nc(Nc3cccc(O)c3)c3ccccc3n2)cc1	4%	-0.3	-3.5	2.1	-14	/	-4.3	-2
CCCc1[nH]nc2c1C(c1ccc(OC)c(CSC3=NCCS3)c1)C(C#N)=C(N)O2 (stereo not drawn)	1%	-0.4	-0.7	/	0	-3	4.0	15
O=C(COc1ccc2ccc(=O)oc2c1)N1CC[C@@]2(O)CCCC[C@H]2C1	/	-0.6	-3.6	-4.3	-6	-3	5.2	-5
Cn1c(=O)c2cc(S(=O)(=O)NC(Cc3ccccc3)C(=O)NCc3ccco3)ccc2n(C)c1=O (stereo not drawn)	0%	0.6	3.0	-2.4	-8	-4	-3.3	-5
CN(c1ccccc1)c1nc(N)c([N+](=O)[O-])c(N2CCCCC2)n1	-18%	0.0	-3.2	9.8	10	4	5.1	12
COc1ccc(-c2cc(C(F)F)n3ncc(C(=O)N4CCc5ccccc5C4)c3n2)cc1	4%	-1.0	/	-8.3	19	-1	-1.2	24
CCOc1ccc(S(=O)(=O)Nc2ccc3c(c2)OCO3)c2cccnc12	?	0.1	4.5	/	-4	-2	-9.0	6
Cc1ccccc1C(=O)c1cccn1CC(=O)NCc1cccc(Cl)c1	/	2.0	-2.5	2.8	-1	1	-1.0	8
Cc1ccccc1-n1c(C)nnc1SCC(=O)NC1CCCc2ccccc21 (stereo not drawn)	/	0.1	-2.6	/	-5	-1	-0.3	-1
O=C(COC(=O)c1cnccn1)c1ccc2ccccc2c1	32%	0.0	2.0	/	2	1	-3.9	0
CC(C)NC(=O)C(Cc1ccccc1)N1C(=O)c2ccccc2C1=O (stereo not drawn)	-2%	-0.8	1.9	/	-20	-9	-4.6	8
COc1ccc(N(CC(=O)NCc2ccc(C)cc2)S(=O)(=O)c2ccccc2[N+](=O)[O-])c(OC)c1	/	-0.2	-4.0	2.2	20	/	-4.5	12
C/C(=N/NC(=O)c1ccoc1C)c1ccc(NC(=O)c2ccncc2)cc1	/	-1.3	-0.7	2.5	-5	1	-1.4	-6
Further compounds.
SMILES	Vif TR-FRET	A1 inh	RanGTP-Impb inh	AF4-AF9 inh	T cruzi repl	Beta apoptosis	LANA-H2A inh	Calb FLC
O=S(=O)(c1ccc(Br)s1)N1CCC(Cc2ccccc2)CC1	-4%	0.5	3.1	/	-20	-2	0.0	-23
NC(=O)C1CCN(Cc2nc3cc(C(F)(F)F)ccc3c(=O)[nH]2)CC1	9%	0.0	2.2	-0.5	-6	-6	-0.3	-4
CC(C)(C)NC(=O)c1cccc(NC(=O)c2ccco2)c1	10%	0.9	0.7	/	-2	-14	2.7	19
COc1ccc(NC(=O)CCS(=O)(=O)c2ccc(Br)s2)cc1	24%	0.5	-3.4	-1.5	1	1	12	-6
COC(=O)C/C=C/[C@@H](C)[C@@H](/C=N/OCC[C@@H]1C=C[C@H](OC(C)=O)[C@@H](COC(C)=O)O1)NS(=O)(=O)c1ccc(C)cc1	2%	-0.5	-3.4	/	-12	2	-1.2	-7
COc1ccc(CNC(=O)c2c(-c3c(F)cccc3Cl)noc2C)cc1	-3%	-0.3	3.5	-1.0	-1	4	-4.5	-5
Cc1ccc(CNC(=O)CSc2ccc(-c3ccccn3)nn2)cc1	7%	0.2	2.8	0.3	5	-1	-0.2	5
CCn1nc(C)c(CN2CCC(n3nccc3NC(=O)CCCc3ccccc3)CC2)c1C	5%	-0.9	8.2	3.9	25	-3	-2.0	-2
COc1ccccc1-n1c(C)c2c(OC)cccc(=O)c2c1C	/	0.4	-8.8	/	4	-8	1.2	-15
CN1CCN(C(=O)Cn2ncc3c([nH]c4ccccc43)c2=O)CC1	/	0.8	2.2	0.7	-3	-16	2.3	-11
NC(=O)COC(=O)/C=C/c1cccc(Br)c1	6%	1.1	0.3	-1.9	-18	-1	-7.5	-26

Source: PubChem (several laboratories)
